# gsp antagonist: qHTS for Antagonists of gsp, the Etiologic Mutation Responsible for Fibrous Dysplasia/McCune-Albright Syndrome: qHTS | AID 624288, 2012 | gsp-mutant cells, cAMP HTRF, 30 min; control for the full effect not named in the record | Potency, µM (top dose mostly 76.9 µM), for the others: top-dose activity change, negative = inhibition, usual class: inhibitors | 340,000 compounds, 0.4% hits; active = falling curve of any shape with a large fitted effect; inconclusive = falling curve, mostly with a smaller effect; inactive = flat or rising curve; cell line not stated here;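 further: intracellular cAMP measured with PDE inhibitor Ro 20-1724 present during compound exposure; potency means the concentration at half of the fitted maximal effect; on the % scale 0 is the no-effect control and ±100 the full control effect; nearly all actives have a fitted effect of over 65% in size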
#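 Measurement of cellular cAMP by homogeneous time-resolved fluorescence following a 30 min compound exposure at 37C. The PDE inhibitor […] was present throughout; the assay buffer was DPBS with 0.05% BSA and 0.005% Tween 20.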
# TRPV1 potentiator: HTS Assay for Compounds that Act as Potentiators of the Vanilloid Receptor 1; TRPV1-expressing cells, Fluo-8 calcium influx, capsaicin EC20 potentiation; host cell line not named in the record; control for the full effect not named in the record; 320,000 compounds, 0.02% hits; potentiation, % at 8.33 µM; Transient receptor potential cation channel subfamily V member 1 (Homo sapiens), Q8NER1; active means potentiation above 80%; inconclusive means 30% to 80%; inactive means below 30%; further: 0% is about no effect
# Target sequence (Q8NER1 whole entry, looked up): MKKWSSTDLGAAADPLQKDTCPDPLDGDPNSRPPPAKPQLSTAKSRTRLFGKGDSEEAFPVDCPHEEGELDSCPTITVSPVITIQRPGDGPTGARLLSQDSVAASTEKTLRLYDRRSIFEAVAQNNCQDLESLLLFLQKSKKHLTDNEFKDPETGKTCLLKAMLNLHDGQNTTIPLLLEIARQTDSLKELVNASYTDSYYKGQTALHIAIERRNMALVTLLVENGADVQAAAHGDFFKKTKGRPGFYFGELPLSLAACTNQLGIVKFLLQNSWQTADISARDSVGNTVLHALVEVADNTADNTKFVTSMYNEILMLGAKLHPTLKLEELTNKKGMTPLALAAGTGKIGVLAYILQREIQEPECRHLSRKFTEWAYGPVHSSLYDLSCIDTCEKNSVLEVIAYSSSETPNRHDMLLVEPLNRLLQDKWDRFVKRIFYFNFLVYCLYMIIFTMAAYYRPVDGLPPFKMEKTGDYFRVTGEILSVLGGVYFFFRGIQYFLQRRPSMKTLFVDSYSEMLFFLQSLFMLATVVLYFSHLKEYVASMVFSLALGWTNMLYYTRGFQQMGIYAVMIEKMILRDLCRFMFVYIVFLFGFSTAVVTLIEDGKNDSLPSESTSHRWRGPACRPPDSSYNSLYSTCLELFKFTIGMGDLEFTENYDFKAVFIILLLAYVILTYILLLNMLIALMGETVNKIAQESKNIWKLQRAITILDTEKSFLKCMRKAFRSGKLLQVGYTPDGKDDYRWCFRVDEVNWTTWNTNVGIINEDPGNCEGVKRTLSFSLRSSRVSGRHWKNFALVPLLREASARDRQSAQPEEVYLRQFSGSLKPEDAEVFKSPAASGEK
#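 TRPV1-expressing cells were cultured overnight at 35.5C and loaded with Fluo-8 calcium dye for 40 to 90 min at room temperature. After a 10 s baseline, compound was added and calcium influx was read kinetically for 3 min (ex 480/em 520 nm).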
# Menin-MLL FL inh: qHTS Assay for Inhibitors Targeting the Menin-MLL Interaction in MLL Related Leukemias: Competition With Fluorescein Labeled MLL-derived Peptide | Fluorescence polarization, fluorescein-MLL peptide displacement from menin | FP activity change, % at 61.4 µM | 290,000 tested, under 10 active | AID 1766, 2009; inconclusive = falling polarisation curve, or a change in total fluorescence; inactive = total fluorescence flat and polarisation flat or rising; no compound was filed as active; the % refers to the polarisation; negative = inhibition;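 further: % of control where 0% means no effect; inhibitors lower the polarisation; unlabelled MLL peptide was the positive control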
# Sfp inh: qHTS Assay for Inhibitors of Bacillus subtilis Sfp phosphopantetheinyl transferase (PPTase); 310,000 compounds, 3.5% hits; Potency, µM, inactives show max response, negative = inhibition, actives largely listed as inhibitors; Biochemical Sfp PPTase activity, qHTS; AID 1490, 2009; active means well fitted inhibition curve with a large enough effect; inconclusive means small, poorly fitted or top-dose-only effect, or another doubt; inactive means no such curve, though single readings can be large or run the other way;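 further: the enzyme is Sfp with the accession as filed and its product quenches rhodamine fluorescence; potency means the concentration at half of the fitted maximal effect; 0% = enzyme reaction without inhibitor and -100% = no enzyme wells; top concentration of the series not given in the record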
#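 Step 1, compound plus 15 nM Sfp-PPTase, 15 min, room temperature. Step 2, add rhodamine-CoA (5 uM) and BHQ-2-YbbR (12.5 uM). Step 3, read 525/598 nm fluorescence at 0 and 30 min.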
# TRPML1 blocker: qHTS for Inhibitors of the Human Mucolipin Transient Receptor Potential 1 (TRPML1) | Mucolipin-1 (Homo sapiens), Q9GZU1 | TRPML1-inducible cells, Ca2+ dye fluorescence, FDSS; hits give low values; inhibition of EC80 agonist-evoked calcium signal | activity change, negative = inhibition, % (no concentration beside the values) | 390,000 compounds, 0.02% hits | AID 624415, 2012; in the data active means activity change below about -50%; inconclusive means about -30% to -50%; inactive means above about -30%;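 further: stimulus is agonist 54-4 at its EC80 concentration; on the % scale 0 is the no-effect control and ±100 the full control effect; compound concentration not given in the record; the text of the record puts the active cut at -80%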
#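 TRPML1-DL cells, Tet-induced overnight (~16 h, 37 °C) at 1,500 cells/well, were loaded with Ca8 no-wash dye plus quencher for 45-90 min at room temperature. Compounds were pinned during FDSS kinetic reading; agonist 54-4 at EC80 (4 uM final) then added.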
# ClpP mod: qHTS Assay for Activators of ClpP; ATP-dependent Clp protease proteolytic subunit (Bacillus subtilis (strain 168)), P80244; purified B. subtilis ClpP, FRET peptide cleavage, 20 min; Potency, µM (series often up to 57.5 µM), without a hit: at the highest dose activity change, negative = active; 340,000 compounds, 1.9% hits; active = well fitted falling curve with a large enough effect; inconclusive = small, poorly fitted or top-dose-only effect; inactive = no such curve, though single readings can be large or run the other way; further: potency means the concentration at half of the fitted maximal effect; the source files actives as falling curves though it sought activators and does not explain the sign; nearly all actives have a fitted effect of over 65% in size; many hits overshoot -100%
# Target sequence (P80244 whole entry, looked up): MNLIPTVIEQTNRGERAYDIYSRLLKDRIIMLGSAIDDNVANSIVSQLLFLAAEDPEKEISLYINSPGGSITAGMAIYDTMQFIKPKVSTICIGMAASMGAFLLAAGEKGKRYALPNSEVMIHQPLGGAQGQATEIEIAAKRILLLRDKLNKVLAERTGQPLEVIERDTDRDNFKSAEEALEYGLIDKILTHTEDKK
#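 ClpP 10 microg/mL final, pH 8 Tris/KCl buffer with BSA, glycerol, Tween-20; compound pinned in; FRET-FV substrate; RT 20 min; Ex320/Em430; ΔFRET vs ADEP 5.8 microM, DMSO, no enzyme.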
# gsp ag: qHTS for Agonist of gsp, the Etiologic Mutation Responsible for Fibrous Dysplasia/McCune-Albright Syndrome: qHTS; Potency, µM (series often up to 76.9 µM), for the others: at the highest dose activation (cAMP increase), actives largely listed as activators; gsp mutant cells, cAMP HTRF, 30 min; control for the full effect not named in the record; 340,000 compounds, 0.13% hits; active = well fitted activation curve with a large enough effect; inconclusive = small, poorly fitted or top-dose-only effect, or another doubt; inactive = no such curve, though single readings can be large or run the other way; cell line not stated here;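 further: phosphodiesterase inhibitor Ro 20-1724 added with compounds to block cAMP breakdown; potency means the concentration at half of the fitted maximal effect; nearly all actives have a fitted effect of over 60% in size; about a fifth of the inactives were tested at one dose only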
#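 Cells in DMEM/10% FBS with G418 were pretreated with compounds in DMSO plus […] (300 uM stock) for 30 min at 37C. cAMP was measured by HTRF (cAMP-d2 plus anti-cAMP antibody-K) after 30 min at room temperature.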
# Numbers without * were called inactive; ? = inconclusive; . = not tested or not shown; ! = repeats disagree; [ ] = another dose, or the depositor's remark.
no.	Compound	TRPML1 blocker	gsp antagonist	Sfp inh	Menin-MLL FL inh	TRPV1 potentiator	gsp ag	ClpP mod
1	CS(=O)(=O)c1cccc(C(=O)NC(c2ccccc2)c2ccccc2)c1	1	3%	1%	3.3	-12	-19%	-3.7%
2	COc1ccccc1C(=O)N/C(=C/c1cccc([N+](=O)[O-])c1)C(=O)Nc1cccc(C(=O)O)c1	7	.	-8%	-6.6	-7	20%[15.4 µM]	.
3	COCCn1c(SCC(=O)N2CCCC2)nnc1C(C)C	15	16%	22%	-1.1	-5	-4%	-0.9%
4	NC(=O)N/N=C/c1coc2ccc3ccccc3c2c1=O	31	9%	0%	2.1	-14	0%	.
5	O=C1NC(=O)C(c2ccccc2[N+](=O)[O-])=C1Nc1ccc(O)c(Cl)c1	-1	?	56µM*!	?	5	.	0.2%
6	Cc1nnsc1C(=O)NC(C)c1ccccc1 (centres undefined)	0	9%	7%	-1.1	1	22%	.
7	Cc1c(NC(=O)CSc2nnc3sc4ccccc4n23)c(=O)n(-c2ccccc2)n1C	-15	2%	15%	-1.1	0	31%	-0.6%
8	Cc1nc(SCC(=O)Nc2c(C)n(C)n(-c3ccccc3)c2=O)[nH]c(=O)c1C	5	7%	.	.	.	-50%[inhibitor]	0.5%
9	CC1CCCCN1CCNC(=O)C1CCCN(S(=O)(=O)c2cccc3nsnc23)C1 (centres undefined)	-7	3%	7%	.	0	17%	0.3%
10	CCc1nc2sc3c(c2c(=S)[nH]1)CC(C)(C)OC3	-16	-6%	7%	0.3	-14	?	.
11	CC(=O)c1cc(F)c(N2CCCCCC2)cc1C	4	?	3%	-1.0	-4	1%	-1.3%
12	O=C(CSc1nncn1-c1ccccc1)NC1CCCC1	-19	-1%	14%	0.1	5	10%	-0.6%
13	CCOc1ccccc1N1CCN(S(=O)(=O)CC)CC1	-1	-1%	-18%	0.1	5	14%	-4.0%
14	COCCCn1c2nc3ccccc3nc2c2c(=O)n(Cc3ccc(Cl)cc3)c(C)nc21	.	.	12%	0.2	-1	.	.
15	O=C(Nc1ccccc1C(F)(F)F)c1ccc2nccnc2c1	4	4%	-6%	3.1	3	-1%	-4.3%
16	O=C(CN1CCN(S(=O)(=O)c2cccc(Cl)c2)CC1)NCC1(N2CCOCC2)CCCCC1	-3	-3%	.	.	-29	-96%[inhibitor]	-0.3%
17	Cn1c(=O)n(C)c(=O)n(CC(=O)N2CCCCC2)c1=O	0	1%	-3%	4.5	1	-59%[inhibitor]	0.4%
18	O=C(CSc1ncnc2sccc12)N1CCN(C(=O)c2cccs2)CC1	3	3%	.	.	1	14%	-1.0%
19	O=C1CN(C(=O)N[C@@H](Cc2ccccc2)C(=O)N[C@@H](Cc2ccccc2)C(=O)O)c2ccccc2N1	2	8%	18%	-6.3	-5	-47%[inhibitor]	-2.4%
20	CS(=O)(=O)N1CCN(C(=O)c2cc(-c3cccnc3)nc3ccc(Cl)cc23)CC1	1	1%	3%	7.9	14	-2%[15.4 µM]	.
21	O=[N+]([O-])c1cc(CN2CCCC2)ccc1Sc1ccc(Cl)cc1	31	.	2%	-1.4	-1	0%[15.4 µM]	.
22	Cc1ccc2cc(C#N)c(N3CCCN(C(=O)C4CCCO4)CC3)nc2c1 (centres undefined)	18	-24%	-6%	-2.2	-11	-29%	?
23	COc1ccc(-n2cnc3cc(NCc4ccccn4)ccc32)cc1	21	-11%	12%	2.1	-15	-45%[inhibitor]	-4.6%
24	CC(OC(=O)c1cnc2ccccc2n1)c1ccccc1Cl (centres undefined)	8	-2%	-5%	-0.9	6	2%[15.4 µM]	.
25	O=C(O)COc1ccc(Br)cc1CP(=O)(c1ccccc1)c1ccccc1	-18	-6%	16%	3.4	12	3%[15.4 µM]	.
26	CC(=O)N(Cc1cccnc1)c1cccc(-c2nc3ccccc3s2)c1	23	-18%	-31%	1.7	-6	0%[15.4 µM]	14µM*
27	COc1ccc(C(=O)NC(=S)Nc2ccc(N3CCOCC3)cc2)cc1Cl	9	-9%	-5%	-2.7	-2	-12%	.
28	CCn1cc(C(=O)O)c(=O)c2cc(F)c(N3CCN(S(=O)(=O)c4ccc(NC(C)=O)cc4)CC3)cc21	6	5%	-3%	0.2	2	0%	?
29	CC(C)C1Oc2ccccc2N(CC(=O)NC2CCCCC2)C1=O (centres undefined)	34	14%	15%	.	-12	-17%[15.4 µM]	.
30	CN1CCN(S(=O)(=O)c2ccc(NC(=S)NC(=O)c3ccc(Cl)cc3)cc2)CC1	-17	-12%	22µM*	1.7	0	-13%	-29%
31	CCOC(=O)C1=C(N)OC2=C(C(=O)CC(C)(C)C2)C1C1CCCCC1 (centres undefined)	6	?	12%	1.4	-4	-13%	0.8%
32	O=C(CNC(=O)N1CC(=O)Nc2ccccc21)Nc1cc(Cl)ccc1Cl	5	4%	16%	-6.3	-1	1%	0.7%
33	COc1ccc(C(=O)Nc2ccccc2C(=O)O)cc1NC(=O)C(c1ccccc1)c1ccccc1	14	40µM*	-6%	4.2	0	-2%	-1.1%
34	Cc1ccc(Cl)cc1N1CCN(C(=O)C2(S(=O)(=O)c3ccc(Cl)cc3)CC2)CC1	70	12%	-2%	-2.6	-19	13%	-1.6%
35	Cc1nn(-c2ccccc2)c(N2CCCC2)c1/C=N/NC(=O)c1cc(-c2cccs2)nc2ccccc12	15	-3%	9%	0.4	?	-12%	-6.1%
36	CC(C)[C@H](NC(=O)c1ccc(Cl)c([N+](=O)[O-])c1)C(=O)NCc1ccc(Cl)cc1Cl	5	-6%	5%	5.6	-7	28%	1.1%
37	O=C(NCCN1CCOCC1)c1cc(-c2ccc(F)cc2)on1	12	6%	3%	5.5	-4	5%	-1.0%
38	CSc1ccc(NC(=O)/C=C/C(=O)O)cc1	13	5%	12%	1.6	13	-12%[15.4 µM]	.
39	CC1CN(C(=O)COC(=O)c2ccc(NC(=O)CC#N)cc2)CC(C)O1 (centres undefined)	19	5%	16%	1.9	-18	0%	-2.2%
40	CCc1nnc(NC(=O)c2ccc(C)o2)s1	-3	0%	16%	-0.1	3	?	-0.4%
41	CC(=O)Nc1ccc(S(=O)(=O)N2CCN(C(=O)C3COc4ccccc4O3)CC2)cc1 (centres undefined)	11	-7%	6%	.	15	2%[15.4 µM]	-1.1%
42	CCCn1c(O)c(N=NC(=O)CNC(=O)c2cccnc2)c2ccccc21	-6	3%	-2%	-4.5	1	-7%	0.1%
43	CN(CCOc1ccccc1)c1ccc(S(=O)(=O)N2CCCCC2)cn1	20	-11%	7%	1.7	3	?	-6.8%
44	CC(=O)N(CCc1ccccc1C)Cc1cc2ccc(C)cc2[nH]c1=O	4	0%	6%	-0.8	-6	-4%[15.4 µM]	1.0%
45	NC(=O)[C@@H]1CCCN1Cc1nc(-c2cccs2)no1	14	7%	-1%	1.6	8	11%[15.4 µM]	?
46	CCN(CC)CCn1c(NCc2ccc(OC)cc2)nc2ccccc21	20	12%	-2%	0.0	0	23%	-3.1%
47	CCC(=O)NC(=S)Nc1ccc(NC(=O)c2ccccc2[N+](=O)[O-])cc1	0	-7%	16%	-1.4	-6	-16%	0.5%
48	Cn1ccn(CCCCCCn2ccn(C)c2=S)c1=S	-4	.	.	.	.	12%	0.6%
49	O=C(Nc1ccc2c(c1)OCO2)[C@@H]1CCCN1S(=O)(=O)c1cccc2cccnc12	7	-1%	.	.	-7	.	0.9%
50	CC(=O)Nc1ccc(S(=O)(=O)N(C)c2ccccc2)cc1	-10	-5%	19%	1.9	-10	?	0.2%

# With a hit mark in gsp antagonist (from the list above):
no.	compound	TRPML1 blocker	gsp antagonist	Sfp inh	Menin-MLL FL inh	gsp ag
33	COc1ccc(C(=O)Nc2ccccc2C(=O)O)cc1NC(=O)C(c1ccccc1)c1ccccc1	14	40µM*	-6%	4.2	-2%

# Additional results
no.	Compound	TRPML1 blocker	gsp antagonist	Sfp inh	Menin-MLL FL inh	TRPV1 potentiator	gsp ag	ClpP mod
51	Cc1nn(-c2ccccc2)c(N)c1C(c1ccccc1)c1c(C)nn(-c2ccccc2)c1N	0	-7%	0%	-2.0	3	-22%	-3.1%
52	CN(C)c1ccc(CN(C(=O)c2cc3ccccc3oc2=O)C2CCS(=O)(=O)C2)cc1 (centres undefined)	32	-17%	2%	.	6	-11%	-1.1%
53	O=S(=O)(c1c(F)cccc1F)N1CCCC2CCCCC21 (centres undefined)	3	-1%	.	.	-10	-5%	19%
54	C[C@@H](C(=O)Nc1nc(-c2ccccn2)cs1)N1C(=O)C2CCCCC2C1=O (some centres undefined)	2	6%	50µM*	-0.8	-10	-20%	1.1%
55	COCCNC(=S)N1CCCC(CO)C1 (centres undefined)	-15	12%	-11%	1.4	-5	-34%[inhibitor]	.

# Of the compounds above, these have a thiophene ring, fused or not.
no.	Compound	TRPML1 blocker	gsp antagonist	Sfp inh	Menin-MLL FL inh	TRPV1 potentiator	gsp ag	ClpP mod
10	CCc1nc2sc3c(c2c(=S)[nH]1)CC(C)(C)OC3	-16	-6%	7%	0.3	-14	?	.
18	O=C(CSc1ncnc2sccc12)N1CCN(C(=O)c2cccs2)CC1	3	3%	.	.	1	14%	-1.0%
35	Cc1nn(-c2ccccc2)c(N2CCCC2)c1/C=N/NC(=O)c1cc(-c2cccs2)nc2ccccc12	15	-3%	9%	0.4	?	-12%	-6.1%
45	NC(=O)[C@@H]1CCCN1Cc1nc(-c2cccs2)no1	14	7%	-1%	1.6	8	11%[15.4 µM]	?

# Bioassay records: PubChem BioAssay, National Center for Advancing Translational Sciences (NCATS)
